# Source: PubChem BioAssay (Vanderbilt University)
# GIRK2 activ – activators of human GIRK2 potassium channels | G protein-activated inward rectifier potassium channel 2 (Homo sapiens), P48051 | HEK293-GIRK2 thallium flux, Thallos fluorescence | calls only for hits at 25 µM | hit rate 0.05% among 63,000 | AID 1259325, 2017;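 active = among the strongest 0.2% of first-round signals and kept after retests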;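 also: first round at about 10 µM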
# Target sequence (P48051 whole entry, looked up): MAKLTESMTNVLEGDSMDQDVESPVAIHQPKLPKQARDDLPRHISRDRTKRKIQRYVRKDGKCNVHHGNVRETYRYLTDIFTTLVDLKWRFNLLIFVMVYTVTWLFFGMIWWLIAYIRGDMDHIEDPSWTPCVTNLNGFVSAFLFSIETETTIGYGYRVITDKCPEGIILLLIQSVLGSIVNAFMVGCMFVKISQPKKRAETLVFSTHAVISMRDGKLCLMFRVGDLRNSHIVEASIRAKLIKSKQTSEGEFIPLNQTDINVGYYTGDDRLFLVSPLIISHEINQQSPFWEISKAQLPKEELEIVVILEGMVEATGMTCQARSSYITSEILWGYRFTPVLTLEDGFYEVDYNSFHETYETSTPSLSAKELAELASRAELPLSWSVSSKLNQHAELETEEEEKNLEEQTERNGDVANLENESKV
# Calls only; i = inactive.
GIRK2 activ,mol
i,Cc1ccc2c(=O)c(C(=O)Nc3ccccc3)cn(CC(=O)Nc3ccc(F)cc3)c2n1
i,CC(C)c1ccc(NC(=O)CCc2nc3sc4c(c3c(=O)[nH]2)CCCCC4)cc1
i,CN1CCN(CC(=O)N2N=C(c3ccsc3)CC2c2cccc(O)c2)CC1 (stereo not given)
i,CC(=O)NCCNc1cc(Nc2ccccn2)nc(C)n1
i,COc1nn(C)cc1C(=O)NCCn1ncc2c(NCc3ccco3)ncnc21
i,CC1=C(C)C(=O)OC(C(C)C2CCC3C4CC=C5CC(OC6OC(COC7OC(CO)C(O)C(O)C7O)C(O)C(O)C6O)CC(O)C5(C)C4CCC23C)C1 (stereo not given)
i,O=C(NCCCS(=O)(=O)N1CCN(c2ccccc2F)CC1)C1CCCCC1
i,CSc1ncc(Cl)c(C(=O)Nc2ccc(Br)cc2)n1

GIRK2 activ,mol
i,COC(=O)C1=C(C)NC(=O)NC1c1ccc(OC)cc1OC (stereo not given)
i,Cc1noc(-c2cccnc2-n2ncc(C(=O)NCc3cccc(Cl)c3)c2C)n1
i,Cc1ccc(CCCC(=O)Nc2ccc(C(=O)N(C)C)cc2)cc1
i,CCOC(=O)c1ccc(NC(=O)Cn2nc3ccc(Sc4ccccc4)nn3c2=O)cc1
i,COc1ccc(-c2cc3c(=O)n(CC(=O)NCc4ccccc4OC)ccn3n2)cc1
i,COc1ccc(C2CC3C4NN=C(CCC(=O)NCc5cccs5)N4C=CN3N2)cc1 (stereo not given)
i,CC(C)n1c(=O)c2ccc(C(=O)NC3CCCC3)cc2n2c(=O)n(Cc3ccccc3F)nc12
i,COc1cccc(C(=O)NC2CCN(C(=O)c3cn(-c4ccc(F)c(C)c4)nn3)CC2)c1

GIRK2 activ,mol
i,Cc1ccccc1NC(=O)NCCCn1ccnc1-c1ccccc1
i,O=C1OC(=O)c2ccc(Br)c3cccc1c23
i,O=C(c1nc2ccccc2s1)N1CCN(C2=NN=C(c3ccccc3)CS2)CC1
i,COCC(=O)N1CCC(c2cccs2)CC1
i,O=C(NCc1cccs1)c1nnn(-c2ccc(Cl)cc2)c1-c1cccnc1
i,Cc1ccc(-c2csc3c(=O)[nH]c(N4CCCC(C(N)=O)C4)nc23)cc1 (stereo not given)
i,Cc1ccc(-n2nnc3c(N4CCN(C(=O)c5ccc([N+](=O)[O-])o5)CC4)ncnc32)cc1
i,O=C(NCC1CCN(S(=O)(=O)c2cccnc2)CC1)Oc1ccccc1

GIRK2 activ,mol
i,O=S(=O)(/C=C/c1ccccc1)NCC#CCN1CCOCC1
i,O=S(=O)(c1cccc(C(F)(F)F)c1)N1CC(c2nc(C3CC3)no2)C1
i,Cc1nc2c(c(=O)c3ccccc3n2C)c(=O)n1C1CCCCCC1
i,CC1CCCCN1S(=O)(=O)c1ccc(Oc2ccccc2)cc1 (stereo not given)
i,O=C(COc1ccc2ccccc2c1)NCC#CCN1CCCCC1
i,CCCOc1cccc(C2c3c(-c4ccccc4O)n[nH]c3C(=O)N2C)c1 (stereo not given)
i,COc1ccc(/C=C/c2nc(C#N)c(N3CCN(C(=O)c4ccccc4)CC3)o2)cc1OC
i,COc1ccc(S(=O)(=O)NCC(c2ccsc2)N2CCCCCC2)cc1C (stereo not given)

GIRK2 activ,mol
i,O=C(c1cccs1)N(CC1CCCO1)c1nc2ccc(OC(F)(F)F)cc2s1 (stereo not given)
i,COc1cccc(CC(=O)NCCc2csc(-n3cccn3)n2)c1
i,CCC(Sc1ncc(S(=O)(=O)c2ccc(C(C)C)cc2)c(=O)[nH]1)C(=O)Nc1ccc(C)cc1 (stereo not given)
i,O=C(NCCC(O)c1ccccc1)C(=O)Nc1ccccc1Cl (stereo not given)
i,Cc1c(Cl)ccc(S(=O)(=O)NCCCn2ccnc2)c1Cl
i,COc1cccc(CNC(=O)c2c(O)c3sccc3[nH]c2=O)c1
i,Cc1nc2ccccc2n1Cc1ccc(C(=O)NCc2cccs2)o1
i,COc1ccc(CCNC(=O)CN2C(=O)CC(c3ccc(F)cc3)=Nc3ccccc32)cc1OC

GIRK2 activ,mol
i,CCCc1cnc2c(c1SCC(=O)OC)c(=O)n(C)c(=O)n2C
i,COc1ccc(Cl)cc1NC(=O)N1CCN(c2cc(-n3cccc3)nc(C)n2)CC1
i,COc1ccccc1C(=O)N(Cc1ccsc1)CC(F)(F)F
i,O=S(=O)(NCc1ccco1)c1cccc(Cl)c1
i,COCCc1nnc(NC(=O)CCSc2ccc(F)cc2)o1
i,COc1ccc(-c2nc(Cn3c(=O)n(C(C)C)c(=O)c4ccccc43)c(C)o2)cc1OC
i,COc1ccc(C=O)cc1CN1CC(=O)N(Cc2ccccc2)c2ccccc2S1(=O)=O
i,Cc1ccccc1NC(=O)CN1CCC(c2nc(-c3ccncc3)no2)CC1

GIRK2 activ,mol
i,COc1ccccc1-n1ncc2c(C(C)C)nnc(SCC(=O)NCC3CCCO3)c21 (stereo not given)
i,O=C(CCn1ccc(=O)[nH]c1=O)N1CCC(c2nnc(-c3ccco3)o2)CC1
i,Cc1ccc2c(=O)c(C(=O)N3CCCC3)cn(CC(=O)Nc3cccc(Cl)c3C)c2n1
i,CCc1ccc(-n2nnc(C(=O)N3CCN(c4ccccc4)CC3)c2-c2ccncc2)cc1
i,O=C(NCCCS(=O)(=O)N1CCN(c2ncccn2)CC1)c1n[nH]c2ccccc12
i,COc1cc(NC(=O)N2C3CCC2COC3)cc(OC)c1OC
i,O=C(Cn1nc(-c2cccs2)c2sc(N3CCOCC3)nc2c1=O)Nc1ccc(Cl)cc1
i,O=C(NCCc1ccoc1)c1c(F)cccc1F

GIRK2 activ,mol
i,COc1cccc2sc(N3CC(C(=O)NCc4ccco4)C3)nc12
i,O=C(NCC1(CO)CC1)C(=O)Nc1cccc(N2CCCCC2=O)c1
i,O=C(Nc1cc(C2CC2)nn1-c1nc2c(c(=O)[nH]1)CCCC2)c1ccc(Br)o1
i,CC(C)c1ccc(NC(=O)c2ccc(S(=O)(=O)N(C)CC(=O)N3CCOCC3)o2)cc1
i,O=C(c1c(F)cccc1Cl)N1CCC(c2ccccc2)C1 (stereo not given)
i,COC(=O)Nc1nc2ccc(Oc3ccc(NC(=O)Nc4cccc(Br)c4)cc3)cc2[nH]1
i,Cc1cc(C)n(-c2nc(CCNC(=O)/C=C/c3ccco3)cs2)n1
i,CCCCOc1ccc(NC(=O)NCCc2nc(C)cc(C(F)(F)F)n2)cc1

GIRK2 activ,mol
i,CCCn1nc(C)cc1CN(C)c1ncc2c(=O)n(Cc3ccccc3F)c(=O)[nH]c2n1
i,O=C(NCC(O)C1CCCCC1)c1cccc(Cl)c1 (stereo not given)
i,COc1ccc(Cl)cc1NC(=O)CSc1cc(-c2ccccn2)nc(C)n1
i,O=C(Cc1c[nH]c2ccccc12)Nc1cnc(N2CCOCC2)nc1
i,O=C(c1cc(=O)c2ccccc2o1)N1CCC2(CC1)OCCS2
i,O=C(Nc1ncc(Cc2ccc(Cl)c(C(F)(F)F)c2)s1)c1ccc2snnc2c1
i,COc1ccc(NC(=O)NCCn2ncccc2=O)cc1
i,O=C(Oc1ccc2c(=O)c(-c3nc4ccccc4s3)coc2c1)C1CCCCC1

GIRK2 activ,mol
i,COCCNC(=O)CCn1c(=O)[nH]c2ccccc2c1=O
i,O=C(/C=C/c1ccccc1)Nc1cccc2cnccc12
i,COc1ccc(CNC(=O)CSC2=NNC3C4CC(c5ccccc5)NN4C=CN23)cc1 (stereo not given)
i,Cc1cccc(NC(=O)CCc2csc(NC(=O)c3ccc[nH]c3=O)n2)c1
i,O=C(Nc1ccc(Nc2cc(-n3ccnc3)ncn2)cc1)c1cc2ccccc2oc1=O
i,O=S(=O)(/C=C/c1ccccc1)N1CC(c2nc(Cc3ccccc3)no2)C1
i,CCC(=O)N1N=C(c2cccc(NS(C)(=O)=O)c2)CC1c1ccc(O)cc1 (stereo not given)
i,CN1CCC(CNS(=O)(=O)c2cccc3ccccc23)CC1

GIRK2 activ,mol
i,CCc1cnc2c(c1SCC(=O)Nc1nc3ccc(C)cc3s1)c(=O)n(C)c(=O)n2C
i,Cc1ccc(C)c(NC(=O)Cn2nc3c(-c4nc(-c5ccccc5)no4)cccn3c2=O)c1
i,COCCOC(=O)c1c(C)n(C)c2ccc(OC(=O)N3CCOCC3)cc12
i,CCCCN(C1CCS(=O)(=O)C1)S(=O)(=O)c1ccc(OC)c(C)c1 (stereo not given)
i,O=C(Cn1c(=O)oc2ccccc21)N(Cc1ccoc1)Cc1cccs1
i,COC(=O)Nc1nc2ccc(Oc3cccc(NC(=O)Nc4cc(C(F)(F)F)ccc4F)c3)cc2[nH]1
i,Cc1ccc(Cn2c(=O)c3c(nc4n(CCCn5ccnc5)c(C)c(C)n34)n(C)c2=O)cc1
i,COc1ccc(-c2ccc(N3CCCC(C(=O)Nc4cccc5nsnc45)C3)nn2)cc1 (stereo not given)

GIRK2 activ,mol
i,COc1ccc(Cl)cc1NC(=O)CN1CCN(S(=O)(=O)N2CCCCC2)CC1
i,COCC(C)(O)CNC(=O)C(=O)Nc1cc(C)ccc1C (stereo not given)
i,O=C(Nc1nc(-c2cc3ccccc3o2)cs1)c1ccc2ncsc2c1
i,CC1(C)Cc2cccc(OCC(=O)N3CCN(C(=O)c4cnn5ccccc45)CC3)c2O1
i,Cc1ccc(C)c(NC(=O)COc2coc(CSc3nncn3C)cc2=O)c1
i,O=C(NC1CCc2ccccc21)C1CCN(S(=O)(=O)N2CCCC2)CC1 (stereo not given)
i,CN(C)CC1CSCCCN1C(=O)Nc1cccc(Cl)c1 (stereo not given)
i,O=C(COc1ccc(F)cc1)N1C2CCC1COC2

GIRK2 activ,mol
i,O=C(CCCCCn1c(=S)[nH]c2ccc(Br)cc2c1=O)NCc1ccc(Cl)cc1
i,Cn1c(=O)c2c(nc3n2CCN3c2cccc(OCc3ccc(Br)cc3)c2)n(C)c1=O
i,CC1(C)C(O)CCC2(C)C3CCC4CC3(C=C4CO)CCC12 (stereo not given)
i,O=C(Nc1oc2ccccc2c(=O)c1-c1ccc2c(c1)OCO2)c1ccc([N+](=O)[O-])cc1
i,Cc1nc(SCC(=O)Nc2ccc3c(c2)OCO3)cc(-c2ccccn2)n1
i,COc1cccc(-c2csc3c(=O)[nH]c(N4CCN(Cc5ccccc5)CC4)nc23)c1
i,NC(=O)C1CCN(C(=O)c2ccc(S(=O)(=O)NCc3ccco3)o2)CC1
i,CC(=O)c1ccc(NC(=O)Cn2c3ccc(F)cc3c(=O)n2C(C)(C)C)cc1

GIRK2 activ,mol
i,CCOCC(=O)NCCC(O)c1ccoc1 (stereo not given)
i,COc1ccc(OC)c(Nc2nnc(Cc3ccccc3)c(=O)[nH]2)c1
i,O=C(CN1N=NC2C(=O)N(c3ccc(Cl)cc3)C(=O)C21)Nc1ccc(Cl)cc1 (stereo not given)
i,COc1cc(C(=O)Nc2cc(C)nn2-c2nc(-c3ccc(C)cc3)cs2)c([N+](=O)[O-])cc1OC
i,Cc1ccc(C(=O)Nc2ccccc2-c2nc3ccccc3[nH]c2=O)cc1[N+](=O)[O-]
i,CN1NC(c2ccc(O)cc2)C2C(=O)N(Cc3ccccc3)C(=O)C21 (stereo not given)
i,Cc1c(C)n2c3c(=O)[nH]c(=O)n(C)c3nc2n1CCCN1CCN(c2ccc(F)cc2)CC1
i,Cn1nc(C2CCN(CC(=O)N3CCCc4ccccc43)CC2)n(-c2ccccc2)c1=O

GIRK2 activ,mol
i,COc1ccc(S(=O)(=O)NCCc2nc(C)cc(C(F)(F)F)n2)c(C)c1
i,CCOCC(=O)N1CCC(Cn2ccnc2-c2ccccc2)CC1
i,O=S(=O)(NCCN1CCN(c2ccccc2F)CC1)c1ccc(F)c(Cl)c1
i,Cc1ccc(C2C(=C(O)c3ccc4c(c3)OCCO4)C(=O)C(=O)N2CCCN(C)C)cc1 (stereo not given)
i,Cc1ccc(Nc2nc(NCCN3CCOCC3)nc3n[nH]nc23)cc1
i,Cc1ccc(Cl)cc1-n1nnc(C(=O)NC2CC(C)(C)NC(C)(C)C2)c1C
i,COC(=O)C1=C(C)NC(C)=C(C(=O)O[C@@H]2CCCN(Cc3ccccc3)C2)[C@@H]1c1cccc([N+](=O)[O-])c1
i,O=C(Nc1c(F)cccc1F)N1CCC(Cn2c(C(F)(F)F)nc3ccccc32)CC1

GIRK2 activ,mol
i,COc1ccc2c(=O)c3c(=O)n(-c4ccc(C)cc4)c(-c4cccs4)nc3oc2c1
i,COc1ccc(NC(=O)C2CCN(c3c(C#N)cnc4ccc(F)cc34)CC2)cc1Cl
i,COc1ccc(-c2csc3c(=O)n(CC(=O)Nc4ccc(Br)cc4)cnc23)cc1
i,Cc1ccc(S(=O)(=O)N(Cc2ccc(Cl)cc2Cl)C(=O)N2CCN(C)CC2)cc1
i,O=C(CSc1nncc(-c2ccccc2)n1)N1CCOCC1
i,NC(=O)c1ccc(NC(=O)C2CCCN(c3ccc(-c4ccc(Cl)cc4)nn3)C2)cc1 (stereo not given)

# Given as tab-separated lines: 15 of the compounds above
mol	GIRK2 activ
O=C(Nc1oc2ccccc2c(=O)c1-c1ccc2c(c1)OCO2)c1ccc([N+](=O)[O-])cc1	i
Cc1nc(SCC(=O)Nc2ccc3c(c2)OCO3)cc(-c2ccccn2)n1	i
COc1cccc(-c2csc3c(=O)[nH]c(N4CCN(Cc5ccccc5)CC4)nc23)c1	i
NC(=O)C1CCN(C(=O)c2ccc(S(=O)(=O)NCc3ccco3)o2)CC1	i
CC(=O)c1ccc(NC(=O)Cn2c3ccc(F)cc3c(=O)n2C(C)(C)C)cc1	i
CCOCC(=O)NCCC(O)c1ccoc1 (stereo not given)	i
COc1ccc(OC)c(Nc2nnc(Cc3ccccc3)c(=O)[nH]2)c1	i
O=C(CN1N=NC2C(=O)N(c3ccc(Cl)cc3)C(=O)C21)Nc1ccc(Cl)cc1 (stereo not given)	i
COc1cc(C(=O)Nc2cc(C)nn2-c2nc(-c3ccc(C)cc3)cs2)c([N+](=O)[O-])cc1OC	i
Cc1ccc(C(=O)Nc2ccccc2-c2nc3ccccc3[nH]c2=O)cc1[N+](=O)[O-]	i
CN1NC(c2ccc(O)cc2)C2C(=O)N(Cc3ccccc3)C(=O)C21 (stereo not given)	i
Cc1c(C)n2c3c(=O)[nH]c(=O)n(C)c3nc2n1CCCN1CCN(c2ccc(F)cc2)CC1	i
Cn1nc(C2CCN(CC(=O)N3CCCc4ccccc43)CC2)n(-c2ccccc2)c1=O	i
COc1ccc(S(=O)(=O)NCCc2nc(C)cc(C(F)(F)F)n2)c(C)c1	i
CCOCC(=O)N1CCC(Cn2ccnc2-c2ccccc2)CC1	i

# This is a subset. The share of hits here may be higher or lower than overall.
